# Rce1 inh – yeast Ras-converting enzyme inhibition | yeast membranes, quenched prenylated peptide cleavage fluorescence | Q03530 | calls only | 290,000 compounds, 0.27% hits | AID 2563;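 active = fall in fluorescence gain of 50% or more versus controls, with final raw signal at or below 3038400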;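 note: plate controls were neutral control wells for no effect and wells lacking membranes for full effect; tested at 10 µM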
# Target sequence (Q03530 whole entry, looked up): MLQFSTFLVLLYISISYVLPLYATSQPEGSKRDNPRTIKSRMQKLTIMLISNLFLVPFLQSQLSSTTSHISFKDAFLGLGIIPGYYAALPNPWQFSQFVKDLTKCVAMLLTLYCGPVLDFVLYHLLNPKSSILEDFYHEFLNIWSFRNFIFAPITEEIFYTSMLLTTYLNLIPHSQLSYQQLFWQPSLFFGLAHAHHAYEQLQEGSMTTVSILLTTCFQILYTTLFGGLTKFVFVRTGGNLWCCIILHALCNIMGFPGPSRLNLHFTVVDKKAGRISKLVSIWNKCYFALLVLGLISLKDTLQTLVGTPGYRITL
# Env fusion inh – inhibitors of HIV Env-mediated cell fusion; inhibition, % at 12.3 µM; 360,000 compounds, 1.1% hits; HeLa-JRFL Env/CEM21 cell fusion, luciferase;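 active = mean replicate inhibition score of at least 50 and every replicate individually at or above 50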;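 note: 0% = plate neutral controls and 100% = maraviroc near 300 nM; one replicate is shown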
# MT1-MMP act inh – MT1-MMP (human) activation inhibition | P50281 | 360,000 compounds, 0.061% hits | AID 651647 | GFP/RFP ratio change, % at 20 µM | HT1080 RFP-PRO-GFP cells, GFP/RFP ratio fluorescence, overnight; percent of plate control window, DMSO zero;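 active = GFP/RFP ratio change of at least 30% with cell ATP level not reduced by more than half and red fluorescence within 50% of control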; note: strong numbers were not always called active
#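 Assay system: HT1080 cells carrying an RFP-PRO-GFP reporter | Dosing: Single dose of 20 µM compound, 1% DMSO final | Incubation: Cells overnight before dosing, compound overnight, 37 °C, 5% CO2 | Evaluation: GFP/RFP fluorescence ratio | Control set: DMSO and RFP-L50D-GFP cell wells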
# eIF4H FP inh – inhibitors of RNA binding by human eIF4H | eIF4H fluorescence polarization binding assay | inhibition, % at 35 µM | 290,000 compounds, 0.94% hits | Q15056;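 active = 50% or more with normal probe brightness, or confirmed in later tests; about a fifth of its hits are not listed in these tables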;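 note: calls also rest on retests at 20 µM and on dose response follow-up; 0% = protein and probe with vehicle and 100% = probe without protein; strong numbers were not always called active; many hits fall short of the cut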
# PABP polyA inh – blocks human PABP binding to poly(A) RNA | inhibition, % at 35 µM | fluorescence polarization | 290,000 compounds, 1% hits | P11940;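 active = 50% or more with normal probe brightness, or confirmed in later tests; about a fifth of its hits are not listed in these tables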;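 note: calls also rest on retests at 20 µM and on dose response follow-up; controls were probe without protein and protein plus probe with vehicle; some compounds called inactive have numbers as strong as hits; many hits fall short of the cut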
# UUG fidelity – alters start codon recognition fidelity in yeast | AID 602363 | 350,000 compounds, 0.13% hits | S. cerevisiae UUG-firefly luciferase reporter, luminescence/redox ratio | activity score, % at 18.7 µM;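 active = replicate mean at a twofold rise or more, about +100% in these data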;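 note: firefly luciferase made from a UUG start codon reports start codon fidelity; reporter light over untreated wells divided by growth signal over untreated wells; some hits fall short of that in this replicate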
# CSC inhib – blocks cancer stem cells; inhibition, % at 7.5 µM; 300,000 compounds, 1.1% hits; cancer stem cell-like cells viability, luminescence;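 active = mean at 75% or more and at least half the replicates too; tested in HMLE shEcad cells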;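 note: 0% = median of negative and 100% = median of positive control wells; the first replicate is given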
# eIF4H FP inh retest – further read-out of eIF4H FP inh, marked with its call; inhibition, %; compound at 20 µM; confirmation average;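 mean of two retest wells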
# PABP polyA inh retest – also measured in PABP polyA inh; calls as there; inhibition, %; compound at 20 µM; confirmation repeats;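 mean of two retest wells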
# MT1-MMP act inh RFP – further read-out of MT1-MMP act inh, marked with its call; RFP signal change, %; measured here: RFP expression control read;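 0 = vehicle wells; hits needed this value within 50% of zero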
# The depositor's hits bear a star; i = inactive; / = not tested or not shown; + = active, no number. The list is partial; the hit share may differ from the screen's.
SMILES,Rce1 inh,Env fusion inh,MT1-MMP act inh,MT1-MMP act inh RFP,eIF4H FP inh,PABP polyA inh,UUG fidelity,CSC inhib,others
CC(=O)c1cccc(NC(=S)NC(=O)Cc2ccc(Cl)cc2)c1,i,1,3,1,-5,3,-5,-2,
CCc1c(C)nc2cc(-c3cc(OC)cc(OC)c3)nn2c1N1CCCC1,i,/,-8,-6,3,10,-2,83*,
O=C(Nc1ccc2c(c1)OCCO2)c1[nH]c(C(F)(F)F)nc1-c1ccccc1,/,7,-3,-21,/,/,-50,/,
COc1cc(C(C)=O)ccc1COc1ccc(C(=O)OCC(N)=O)cc1OC,i,-1,16,2,-13,-1,55,2,
O=c1cc(-c2ccccc2)nc(SCc2ccccc2F)[nH]1,i,6,-1,1,0,3,/,12,
CC(C)(C)C1CCC(=NNC(=S)NCc2ccccc2)CC1 (stereo not drawn),i,3,-5,-6,-4,-10,-30,3,
O=C1NN(c2ccc(F)c(Cl)c2)C(=O)/C1=C\c1cccc(OC(=O)c2cccs2)c1,i,/,8,3,8,19,-10,-7,
S=c1[nH]nc(-c2ccco2)n1Cc1ccccc1,/,-36,-6,3,-7,2,-15,-8,
COc1ccccc1N1CCN(C(=O)CCc2ccc(S(=O)(=O)NC(C)C)cc2)CC1,i,3,6,0,-8,-3,/,-8,
O=C(Cc1c(F)cccc1Cl)Nc1ccccn1,i,-1,-4,-1,-6,5,-6,-15,
CC(C)OC(=O)c1ccc(OC(=O)c2cccnc2)cc1,i,/,-3,2,-2,1,-7,9,
COc1cccc(C(C(=O)NC2CCCCC2)N(C(=O)c2ccco2)c2ccc(-n3cnnn3)c(C)c2)c1 (stereo not drawn),i,-219,-7,0,-18,-10,-6,-10,
N#CC1=C(N)C(C#N)(C#N)[C@H](c2ccncc2)[C@H]2CN(C(=O)OCc3ccccc3)CC=C12,i,-21,-98,4,90,-2,-3,-10,eIF4H FP inh retest=19;PABP polyA inh retest=0
Cc1ccc(NC(=O)Nc2ccc3c(c2)OCO3)cc1F,i,/,-2,-2,-14,-3,-6,-7,
N#Cc1ccc(-c2cccnc2)nc1SCC(=O)Nc1sc2c(c1C#N)CCC2,i,/,-71,4,2,-8,2,12,
Cc1cccc(NC(=O)C2(c3cccs3)CCOCC2)c1,i,12,6,7,-2,-10,-14,-3,
Cc1cc(-c2ccccc2)n2nc(C)c(C#N)c2n1,+,-113,3,2,-2,-6,-6,-16,
COc1cc2nc(SCc3c(C)noc3C)n(CCC3=CCCCC3)c(=O)c2cc1OC,i,-8,0,-1,-15,0,/,46,
Cc1ccc(C)c(C(=O)CN2C(=O)NC3(CCc4ccccc43)C2=O)c1 (stereo not drawn),/,0,1,-4,/,/,7,-14,
Cc1ccc(S(=O)(=O)Nc2ccc(N3CCOCC3)cc2)cc1[N+](=O)[O-],i,-2,-2,-2,7,-7,/,9,
S=C(NC1CCCCC1)N1CCC(C2C=NC=N2)CC1 (stereo not drawn),/,9,3,2,/,/,-13,/,
COc1ccc(S(=O)(=O)N2CC(=O)Nc3ccccc32)cc1,i,-66,-1,-3,15,5,-7,-7,
COc1ccc(CCNC(=O)CSc2nc3[nH]ncc3c(=O)n2-c2ccc(Br)cc2)cc1OC,i,-19,2,0,1,-15,/,1,
Nc1ccc(-c2cc3ccccc3oc2=O)cc1,i,40,1,-2,1,-2,-37,4,
C/C(=C\c1ccc(N)cc1)c1nc2ccccc2[nH]1,i,-134,5,4,1,-9,-41,2,
CCCC(OC(=O)CC1Sc2ccccc2NC1=O)C(=O)NCc1ccco1 (stereo not drawn),i,/,-3,4,5,6,5,8,
CN(c1ccccc1C(=O)Nc1ccc2ccccc2c1)S(C)(=O)=O,i,6,1,0,/,/,-21,-4,
COc1ccc(NC(=O)N2CCCCC2)cc1,i,2,-1,3,0,4,-7,-11,
COc1cc(/C=C/C(=O)OCc2c(C)noc2C)ccc1OC(F)F,i,4,0,-2,-8,2,-20,-3,
COc1ccccc1NC(=O)COc1ccccc1C(=O)c1cnn(-c2ccccc2)c1,i,-39,0,-2,-4,-18,/,-8,
CCOC(=O)CN1C(=O)c2ccccc2C1=O,i,-80,1,5,-3,-8,-8,-7,
O=C(O)CN(c1ccccn1)S(=O)(=O)c1ccccc1,i,-9,-2,0,-5,4,-15,7,
Cc1sc2ncnc(N3CCC(C(=O)NNC(=O)COc4ccccc4F)CC3)c2c1C,/,9,-3,-1,/,/,0,9,
C#Cc1ccc([C@H]2C=C(C(=O)NCc3nc4ccccc4[nH]3)O[C@@H](OCC)[C@@H]2CCCO)cc1,i,-31,3,-3,/,/,-4,16,
CC(NCc1ccc2c(c1)OCO2)C(=O)NC1CCCc2ccccc21 (stereo not drawn),i,/,7,5,11,-4,-1,-1,
O=C(c1ccc(Cl)cc1Cl)N1CCN(c2ccccn2)CC1,i,4,-1,-3,-6,6,-2,-11,
CC1CCc2nc(NCCO)nc(C(F)(F)F)c2C1 (stereo not drawn),i,/,4,5,-9,9,-10,1,
O=C(N/N=C/c1cccnc1)/C(=C\c1cccs1)NC(=O)c1ccccc1,i,5,2,-1,-5,-13,/,38,
CCOc1cccc(C2C(C(=O)c3ccc(C)o3)=C(O)C(=O)N2CCCn2ccnc2)c1 (stereo not drawn),i,21,1,2,/,/,/,-7,
CCCN(CC(=O)Nc1ccccc1OC)C(=O)CSc1nc(C)cc(C)n1,i,/,0,0,/,/,1,-9,
Cc1cc(N2C(=O)C3C4CC(C(Br)C4Br)C3C2=O)no1 (stereo not drawn),i,/,6,8,2,1,-11,-4,
Cn1c(SCC(=O)N2CCc3ccccc32)nnc1C1CC1,i,-45,-2,1,-2,-6,-8,-15,
CCC(c1nnnn1CCOC)N1CCN(Cc2ccccc2OC)CC1 (stereo not drawn),i,/,3,5,-6,10,-1,2,
Cc1ccc(CNCC(O)(c2ccccc2)c2ccc(F)cc2)cc1 (stereo not drawn),i,-23,0,0,-6,-10,-3,14,
O=CC1=C(N2CCOCC2)/C(=C\c2ccccc2)CC1,i,-18,-5,-1,16,-9,-1,-1,
Cc1ccc(C2(C)NC(=O)N(CC(=O)Nc3ccc(N4CCOCC4)cc3N3CCOCC3)C2=O)cc1 (stereo not drawn),/,-2,3,3,/,/,-6,1,
O=C(NC1CCCCC1)c1ccc(-c2ccccc2)cc1,i,-28,0,-1,/,/,8,-2,
CCOC(=O)c1[nH]ncc1CN1CCC(Cc2cccc(OC)c2)(C(=O)OCC)CC1,i,15,1,2,1,-1,2,-14,
COc1cc(C(=O)OCc2ccccc2C#N)ccc1OCC(=O)N1CCOCC1,/,/,-1,4,/,/,-3,-7,
Cc1ccc(CNC(=O)Cn2c(=O)n(-c3ccccc3)c(=O)c3sccc32)cc1,i,8,8,-4,-5,4,-7,-15,

# More compounds:
SMILES,Rce1 inh,Env fusion inh,MT1-MMP act inh,MT1-MMP act inh RFP,eIF4H FP inh,PABP polyA inh,UUG fidelity,CSC inhib,others
Oc1ccc(Br)cc1C1Nc2ccccc2S1 (stereo not drawn),i,-37,-4,0,-3,-1,-3,9,
CCOC(=O)C1=CN(Cc2cccc(F)c2)S(=O)(=O)N(CC)C1c1cccc(OC)c1 (stereo not drawn),/,0,-4,-6,/,/,0,/,
CC1(C)COC(c2cccn2Cc2ccc(F)cc2Cl)=N1,i,-6,5,2,10,3,-18,-17,
Cn1c(=O)n(C)c2cc(/C=N/NC(=O)c3cc4cc(Br)ccc4o3)ccc21,i,-17,1,1,-33,-34,/,-1,
Cc1nc(C(=O)NCC(=O)c2ccccc2)c(C(F)(F)F)o1,i,-8,0,-1,1,-8,-5,-2,
COCCCNC(=S)Nc1ccc(C)cc1,i,-7,-1,-1,-8,-2,/,-15,
CC1CN(C(=O)Nc2cccc(C(F)(F)F)c2)CC(C)O1 (stereo not drawn),i,4,0,1,-4,-5,/,-6,
Cn1cnc([N+](=O)[O-])c1S(=O)(=O)c1cccc(Cl)c1,i,27,9,2,3,5,/,33,
COc1ccc(/C=C(\C#N)C(=O)Nc2cccc(C)n2)cc1,i,-1,-3,-3,4,12,/,2,
CCOC(=O)N1CCN(C(=O)c2cccc(NC3=NC4CS(=O)(=O)CC4S3)c2)CC1 (stereo not drawn),i,-6,4,3,-6,7,-19,-23,
Cc1ccc(C(=O)N2CCN(c3ccc(Cl)cc3)CC2)cc1,i,/,0,0,-1,6,-7,11,
O=C(COC(=O)C1CCC(=O)N1)Nc1ccc(Br)cc1 (stereo not drawn),/,4,1,5,-5,-5,/,-2,
C=CCCC(=O)N1CCC(n2nccc2NC(=O)c2ccc(OC)cc2)CC1,i,-8,1,2,26,-1,-24,-8,
CCOc1ccc(CN(C)CC(=O)Nc2ccc3c(c2)CCC3)cc1OC,i,17,4,-1,76*,3,-5,/,eIF4H FP inh retest=89*;PABP polyA inh retest=28
CCC(C)Nc1nc2ccccc2n2c(C)nnc12 (stereo not drawn),i,-18,9,6,7,-1,-10,-2,
COC(C(=O)Nc1ccc(F)c(F)c1)c1ccccc1 (stereo not drawn),i,-5,6,-3,/,/,-14,-17,
O=C(NNC(=O)c1ccccc1C(=O)O)c1ccc(-c2ccccc2)cc1,i,8,/,/,-9,-3,/,-5,
O=C(NCCCCNC(=O)c1cccs1)c1cccs1,i,-4,-3,-1,9,-1,-17,13,
COc1ccc(C2C(C(C)=O)=C(O)C(=O)N2c2nccs2)c(OC)c1 (stereo not drawn),i,16,2,3,-11,-1,/,-8,
CC1Cc2ccccc2N1C(=O)CN1C(=O)C(=O)N(Cc2ccccc2)C1=O (stereo not drawn),i,/,-1,2,2,-5,-1,-14,
Cc1cc(C)cc(NC(=O)C2CCN(S(=O)(=O)c3c(C)n[nH]c3C)CC2)c1,i,/,-4,-3,4,-14,-27,-6,
O=C(N/N=C/c1ccc([N+](=O)[O-])cc1)c1ccccc1OCc1ccccc1,i,-46,-1,-2,-2,0,-22,-6,
Cn1cc(CCCC(=O)NCc2ccccc2)c2ccccc21,i,6,-1,0,0,5,-4,-2,
CC(=O)Cc1nsc(NC(=O)c2oc(-c3ccccc3Cl)cc2C)n1,i,12,1,2,2,11,0,17,
Nc1cc(N)nc(SCC(=O)N2CCc3ccccc32)n1,i,/,-3,-1,-5,-2,-11,30,
CCC(=O)N1CCCC(C(=O)NS(=O)(=O)c2cc(C)c(Cl)cc2C)CC1 (stereo not drawn),/,-11,-2,5,/,/,-7,/,
CCOC(=O)Cc1ccc(NC(=O)c2ccccc2Br)cc1,i,-12,3,3,-1,9,-13,4,
COc1cc(/C=N/OCC(=O)Nc2ccc(OC(F)F)cc2)ccc1OCc1ccccc1,i,-267,-14,-13,66*,0,/,47,eIF4H FP inh retest=82*;PABP polyA inh retest=13

# Arranged by number of heavy atoms (highest first): some entries from above.
SMILES,Rce1 inh,Env fusion inh,MT1-MMP act inh,MT1-MMP act inh RFP,eIF4H FP inh,PABP polyA inh,UUG fidelity,CSC inhib,others
O=C(N/N=C/c1ccc([N+](=O)[O-])cc1)c1ccccc1OCc1ccccc1,i,-46,-1,-2,-2,0,-22,-6,
Cc1cc(C)cc(NC(=O)C2CCN(S(=O)(=O)c3c(C)n[nH]c3C)CC2)c1,i,/,-4,-3,4,-14,-27,-6,
CCC(=O)N1CCCC(C(=O)NS(=O)(=O)c2cc(C)c(Cl)cc2C)CC1 (stereo not drawn),/,-11,-2,5,/,/,-7,/,
CC(=O)Cc1nsc(NC(=O)c2oc(-c3ccccc3Cl)cc2C)n1,i,12,1,2,2,11,0,17,
Cn1cc(CCCC(=O)NCc2ccccc2)c2ccccc21,i,6,-1,0,0,5,-4,-2,
CCOC(=O)Cc1ccc(NC(=O)c2ccccc2Br)cc1,i,-12,3,3,-1,9,-13,4,
Nc1cc(N)nc(SCC(=O)N2CCc3ccccc32)n1,i,/,-3,-1,-5,-2,-11,30,
